Compound activity deposited in PubChem by several laboratories.
MT1-MMP act inh: MT1-MMP (human) activation inhibition | P50281 | HT1080 RFP-PRO-GFP cells, GFP/RFP ratio fluorescence, overnight; percent of plate control window, DMSO zero | GFP/RFP ratio change, % at 20 µM | actives 0.061% (n = 360,000) | AID 651647;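 active = GFP/RFP ratio change of at least 30% with cell ATP level not reduced by more than half and red fluorescence within 50% of control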; note: strong numbers were not always called active
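Assay system: HT1080 cells carrying an RFP-PRO-GFP reporter | Dosing: Single dose of 20 µM compound, 1% DMSO final | Incubation: Cells overnight before dosing, compound overnight, 37 °C, 5% CO2 | Evaluation: GFP/RFP fluorescence ratio | Control set: DMSO and RFP-L50D-GFP cell wells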
Env fusion inh: HIV envelope-mediated fusion inhibition; HeLa-JRFL Env/CEM21 cell fusion, luciferase; inhibition, % at 12.3 µM; actives 1.1% (n = 360,000);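 active = mean replicate inhibition score of at least 50 and every replicate individually at or above 50; inconclusive = only one of the two criteria met; inactive = mean below 50 and not all replicates reaching 50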;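 note: 0% = plate neutral controls and 100% = maraviroc near 300 nM; one replicate is shown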
MT1-MMP act inh RFP: also measured in MT1-MMP act inh; calls as there; RFP signal change, %; measured here: RFP expression control read;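 0 = vehicle wells; hits needed this value within 50% of zero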
Numbers without * were called inactive; u = inconclusive; [ ] = dose if it differs, or a comment. This is a subset, so the mix of outcomes need not match the whole.

SMILES	MT1-MMP act inh	MT1-MMP act inh RFP	Env fusion inh
C=CCC(NC(=O)N(C)C)(C(C)=O)C(=O)OC (stereo not given)	4	6	5
CCOC(=O)[C@]12CCCC=C1N(Cc1ccc(Cl)cc1Cl)C(=O)[C@H](CC(=O)N1CCSCC1)C2	-1	1	-34
CCCc1c(-c2cccc(Cl)c2)ncn1CCc1ccccc1OC	-10	-24	25
N#Cc1cccnc1N1CCN(C(c2ccnc3ccccc23)c2nnnn2-c2ccc3c(c2)OCCO3)CC1 (stereo not given)	0	-3	-6
COC(=O)[C@]12CCCCC=C1N(Cc1ccc3c(c1)OCO3)C(=O)[C@H](CC(=O)NCCCN1CCCC1=O)C2	-2	4	7
CCCC[C@@H]1CC2=C(C(=O)OC(C)(C)O2)[C@@H](c2ccc(F)cc2)O1	5	4	-30
COc1ccc(NC(=O)CCOc2ccccc2F)cc1S(=O)(=O)N1CCCCC1	4	-11	0
COC(=O)C1C2CC(=O)C(C2)C1C(=O)OC (stereo not given)	0	4	-79
COc1ccc([C@H]2C[C@@H](n3cc(COC(=O)c4ccccc4)nn3)[C@H](O)CN2C(=O)c2cccs2)cc1	5	3	-14
CC(C)(C)n1nnnc1C(c1cc2ccccc2o1)N1CCN(C(=O)OCc2ccccc2)CC1 (stereo not given)	-7	-12	24
CSCCC(C(=O)Nc1c(C)cccc1C)n1c(-c2cc(C)cs2)nc2ccccc21 (stereo not given)	-3	-2	-30
Cc1cc2c(cc1C)-n1nnnc1C(N(Cc1ccccc1)Cc1ccccc1)C(=O)N2 (stereo not given)	-9	-4	u
O=C(COc1cc(F)ccc1[N+](=O)[O-])N1N=C(c2cccs2)CC1c1ccco1 (stereo not given)	2	-2	2
CCCCn1nnnc1C(c1cc2ccccc2o1)N1CCN(CCN(C)C)CC1 (stereo not given)	7	6	-30
O=C(NCc1ccccc1)[C@@H]1CCCN1C(=O)[C@@H]1CCCN1C(=O)c1cccs1	2	1	5

Three of the entries above in order of the MT1-MMP act inh RFP value, smallest number first:
structure | MT1-MMP act inh | MT1-MMP act inh RFP | Env fusion inh
CCCc1c(-c2cccc(Cl)c2)ncn1CCc1ccccc1OC | -10 | -24 | 25
CSCCC(C(=O)Nc1c(C)cccc1C)n1c(-c2cc(C)cs2)nc2ccccc21 (stereo not given) | -3 | -2 | -30
CCCC[C@@H]1CC2=C(C(=O)OC(C)(C)O2)[C@@H](c2ccc(F)cc2)O1 | 5 | 4 | -30

Continuation.
SMILES	MT1-MMP act inh	MT1-MMP act inh RFP	Env fusion inh
O=S(=O)(/N=S1\CC=CCN1S(=O)(=O)c1ccccc1)c1ccccc1 (stereo not given)	0	-2	0
CCOC(=O)C1=C(COC(=O)COc2ccccc2C=O)NC(=O)NC1C (stereo not given)	0	2	u
O=C(NC1CCCCC1)C(c1ccccc1)n1c(=O)c(-c2ccco2)nc2ccccc21 (stereo not given)	-11	8	63*
CCCCn1nnnc1C(c1cc2ccccc2o1)N(Cc1ccccc1)Cc1ccccc1 (stereo not given)	-3	-14	25
Cn1cnc(S(=O)(=O)N2C[C@@H](O)COC[C@@H]3O[C@H](CC(=O)NC4CCC4)CC[C@H]32)c1	0	3	-7
O=C(C[n+]1cccc(C(=O)N/N=C/c2cccc([N+](=O)[O-])c2)c1)c1ccccc1	-2	4	-27
O=C1Nc2ccccc2C1=Nc1ccc2[nH]c3ccccc3c2c1	-61	6	-8
CC(C)C1Cc2[nH][nH]c(=O)c2C(c2ccc(Cl)cc2)O1 (stereo not given)	10	7	11
COc1cc(C=C(OC(C)=O)c2ccc3c(c2)OCO3)cc(OC)c1OC	6	-1	-18
CNC(=O)C[C@@H]1C(=O)N(C2CCCCC2)CC1(C)C	2	5	-15
CO[C@H]1CN(C)C(=O)c2ccc(NS(=O)(=O)c3ccccc3F)cc2OC[C@H](C)NC[C@@H]1C	-5	6	-50
CCOC(=O)C1=C(N)n2c(s/c(=C\c3cccnc3)c2=O)=C(C#N)C1c1cccnc1 (stereo not given)	0	1	-5
COc1ccccc1N(C)S(=O)(=O)c1ccc(C(=O)NNC(=O)c2ccccc2O)cc1	5	0	4
CCOC(=O)N1CCC(NS(=O)(=O)c2cc3c(cc2Br)CCN3C(=O)CC)CC1	2	-2	6
ON=C1c2ccccc2-c2cc(Br)ccc21	-8	-9	24
O=C(OC1CC2CC1[C@H]1CCCCN1C2=O)N1CCC(c2ccccc2)CC1 (stereo not given in full)	4	0	1
COc1cccc(OC)c1C(=O)NCCNc1nc2cc(C)cc(C)c2cc1C#N	8	0	-13
Cc1nn(-c2ccccc2)c(C)c1CNC(=O)c1ccc(S(=O)(=O)NCc2ccco2)cc1	0	-2	-10
O=C(NC1CCCCC1)C(c1ccnc2ccccc12)n1c(=O)c(-c2cc3ccccc3[nH]2)nc2ccccc21 (stereo not given)	-10	-11	-4
Nc1c(Br)cc2c([nH]c(=O)c3ccccc32)c1Br	5	1	-145
O=C1CCc2cccc(O)c2N1	0	4	-7
COc1cc2c(cc1OC)C(C(N)=O)NCC2 (stereo not given)	2	4	-23
CC1(C(=O)Nc2ccc3c(c2)OCCO3)CN(S(C)(=O)=O)CC(=O)N1Cc1cccs1 (stereo not given)	3	6	-2
CC1(C(=O)Nc2ccc3c(c2)OCCO3)CN(S(C)(=O)=O)CC(=O)N1CCc1ccccc1F (stereo not given)	0	4	-1
COC(=O)[C@]12CCCCC=C1N(Cc1cccc3ccccc13)C(=O)[C@H](CC(=O)NCc1cccc3ccccc13)C2	-4	-15	3
Cc1cnc(-c2nc3ccccc3n2C(C(=O)Nc2c(C)cccc2C)C2CC2)cn1 (stereo not given)	5	5	-39
COC(=O)C[C@@H]1C=C[C@@H](NS(=O)(=O)c2cccc(OC)c2)[C@@H](CO)O1	-2	2	-14
Nc1ncnc(N)c1NC(=O)c1cc(Cl)c(OCc2ccccc2)c(Cl)c1	3	0	-10
O=C(O)c1cc2cc(S(=O)(=O)O)ccc2cc1O	4	7	-5
COc1ccc2c(c1)CCC(=O)[C@H](O)C[C@H](c1ccccc1)OC2=O	3	3	9
COCCCn1cc(CN2CC(N3CCN(Cc4ccccc4F)CC3)CS2(=O)=O)nn1 (stereo not given)	5	4	-10
C[C@H](NC(=O)[C@@H]1CCCN1C(=O)[C@@H]1CCCN1C(=O)c1cccc2ccccc12)c1ccccc1	5	4	-15
O=C(COC(=O)Cc1ccsc1)Nc1ccc(F)cc1Cl	3	0	-7
CCCCNC(=O)C[C@@H]1C[C@@]2(C(=O)OCC)CCC=C2N(Cc2ccccc2)C1=O	-1	2	2
CC(CCl)n1c(=O)c2ccccc2n1S(C)(=O)=O (stereo not given)	5	7	2
O=C1NC[C@H](CCCCN2C[C@@H](Cc3ccccc3)N(Cc3ccccc3)C(=O)C2=O)N(CCC2CCCCC2)C1=O	1	-5	-194
O=C(C(=O)N1CCN(c2ccccc2)CC1)c1ccccc1	-1	1	12
CC(C1=C(CCN(C)C)Cc2ccccc21)c1ccccn1 (stereo not given)	-2	0	-14
O=C1C(Cl)=C(NCc2ccco2)C(=O)c2ccccc21	-3	-5	17
Cn1c(O)c(N=NC(=O)Cc2c[nH]c3ccccc23)c2ccccc21	1	-2	-17
CC(C)(C)OC(=O)N1C(=O)[C@](OC(=O)c2ccccc2)(c2ccc(F)cc2)c2ccccc21	0	-8	-27
Cc1ccc2c(Cl)cc(Cl)c(O)c2n1	5	-3	46
CCOc1cc(N2CCOCC2)c(OCC)cc1NC(=O)CSc1nnc(N)s1	3	8	-3
CCCCc1c(-c2ccccc2)ncn1CCc1ccccc1OC	-6	-25	6
Cn1c(=O)c2c(nc(CCC3CCCC3)n2C)n(C)c1=O	5	6	-5
O=C(NCc1ccncc1)[C@@H]1CCCN1C(=O)[C@H]1CCCN1	3	4	10
Cc1ccnn1-c1ccc(C(=O)OCC(=O)Nc2ccc(F)cc2)cc1	-3	3	-13
CC1(C(=O)Nc2cnc3ccccc3c2)CCN1Cc1ccc(-c2ccccc2)o1 (stereo not given)	0	3	0
O=C(c1ccc(C(F)(F)F)cc1)N1CCC(=O)N([C@H](COCc2ccccc2)Cc2ccccc2)CC1	-4	-5	-5
Cc1ccc(S(=O)(=O)Oc2ccccc2)cc1	1	3	-29
COc1cccc(C(=O)OCC(=O)NC2CCCc3ccccc32)c1O (stereo not given)	-7	1	22
Nc1sc(-c2ccccc2)cc1C(=O)NCCN1CCOCC1	1	3	12
CN(Cc1ccccc1Cl)C(=O)CCNC(=O)c1ccco1	-1	2	-17
COc1ccc(C(=O)OCC(=O)Nc2c(C)n(C)n(-c3ccccc3)c2=O)cc1OC	-3	-1	-3
C#CCNC(=O)C[C@@H]1C[C@@]2(C(=O)OC)CC(C)(C)CC=C2N(Cc2ccco2)C1=O	4	5	-5
Cc1ccc([C@H]2C[C@@H](n3cc(COC(=O)c4ccccc4)nn3)[C@H](O)CN2C(=O)C2CCCCC2)cc1	2	1	8
CO[C@@H]1CN(C)C(=O)c2cc(NC(=O)NC3CCCCC3)ccc2OC[C@@H](C)N(CCc2ccccc2)C[C@@H]1C	0	1	35[16.7 µM]
Cc1cc(NC(=O)COC(=O)[C@H](Cc2ccccc2)NC(=O)c2ccco2)no1	-2	0	5
Cc1ccc(S(=O)(=O)N2C(c3ccccc3)CC(=O)C3CN(S(=O)(=O)c4ccc(Cl)cc4)C(c4ccccc4)CC32)cc1 (stereo not given)	-5	-2	2
CCC(c1nnnn1-c1ccc2c(c1)OCCO2)N1CCN(C(=O)C2CCCO2)CC1 (stereo not given)	0	3	-16
The listing continues.
SMILES	MT1-MMP act inh	MT1-MMP act inh RFP	Env fusion inh
COc1ccc2nc(SC(C)C(=O)NC3CCCC3)[nH]c2c1 (stereo not given)	1	0	5
Cc1ccc(S(=O)(=O)N2[C@@H](CCO)OC[C@H]2C(C)C)cc1	1	4	3
CCOC(=O)[C@]12CCC=C1N(CCC1=CCCCC1)C(=O)[C@H](CC(=O)NCCCN1CCCC1=O)C2	3	6	u
COc1ccccc1-n1cc(CN2CCc3onc(-c4ccc(Br)cc4)c3C2=O)nn1	1	-23	15
c1ccc2c(C(c3nnnn3-c3ccc4c(c3)OCCO4)N3CCCCC3)ccnc2c1 (stereo not given)	-4	-2	-4
CN(Cc1ccccc1)C(=O)c1ncn2c1C(=O)N(C)CC2	1	6	35
COc1ccc(Cn2cc(CN3CC(N4CCCC4)CS3(=O)=O)nn2)cc1 (stereo not given)	-2	1	4
COC(=O)c1cc(C)c(C)cc1NC1OC(CO)C(O)C1O (stereo not given)	-7	0	8
O=C1CCCCCCC(=O)[C@H](O)C[C@H](c2ccccc2)O1	4	5	-8
Cc1nc(NC(=O)C(C)(C)C)sc1-c1nc(N)sc1-n1cc(-c2ccccc2)nn1	4	1	-23
CCc1ccccc1OCC(=O)Nc1ccc(F)c(S(=O)(=O)N2CCOCC2)c1	-1	-8	30
Cc1ccc(S(=O)(=O)NCc2ccccc2)cc1C(=O)NCC(=O)Nc1c(C)cccc1C	5	-5	-10
CCOC(=O)[C@]12CCCC=C1N(CCC1=CCCCC1)C(=O)[C@H](CC(=O)N1CCCCC1)C2	-3	-8	18
O=C(OC1CC2CC1[C@H]1CCCCN1C2=O)N1CCN(c2ccccc2)CC1 (stereo not given in full)	3	5	-25
CCCCCCCCN1C(=O)[C@H](CC(=O)NCCCN2CCCC2=O)C[C@@]2(C(=O)OCC)CCCC=C12	2	0	u
COC(=O)CCCC[C@@H]1O[C@H](CCc2ccccc2)Cc2[nH]c(=S)[nH]c(=O)c21	3	-2	-9

Full records, looked up by structure:
Listed for CCc1ccccc1OCC(=O)Nc1ccc(F)c(S(=O)(=O)N2CCOCC2)c1 : MT1-MMP act inh: -1; MT1-MMP act inh RFP: -8; Env fusion inh: 30
Listed for COC(=O)CCCC[C@@H]1O[C@H](CCc2ccccc2)Cc2[nH]c(=S)[nH]c(=O)c21 : MT1-MMP act inh: 3; MT1-MMP act inh RFP: -2; Env fusion inh: -9
Listed for COc1ccc2nc(SC(C)C(=O)NC3CCCC3)[nH]c2c1 (stereo not given) : MT1-MMP act inh: 1; MT1-MMP act inh RFP: 0; Env fusion inh: 5

Looked up above.
CCOC(=O)[C@]12CCC=C1N(CCC1=CCCCC1)C(=O)[C@H](CC(=O)NCCCN1CCCC1=O)C2 in MT1-MMP act inh RFP reads 6
O=C(OC1CC2CC1[C@H]1CCCCN1C2=O)N1CCN(c2ccccc2)CC1 (stereo not given in full) in MT1-MMP act inh reads 3
O=C1CCCCCCC(=O)[C@H](O)C[C@H](c2ccccc2)O1 in MT1-MMP act inh RFP reads 5
